2A StopGo – lowers the luciferase signal of an FMDV 2A StopGo reporter; Potency, µM (titrated, usually from 57.9 µM), without a hit: at the highest dose signal change, negative = less light; 410,000 compounds, 1.2% hits; human cells with a luciferase reporter of 2A StopGo recoding; control for the full effect not named in the record; AID 1159524; active = well fitted falling curve with a large enough effect; inconclusive = small, poorly fitted or top-dose-only effect; inactive = no such curve, though single readings can be large or run the other way; tested in HEK293T cells; also: % is scaled to controls: 0 for no effect and ±100 for the full control effect; nearly all actives have a fitted effect of over 45% in size; luciferase light after 4 h
Cruzain noTriton – blocks cruzain activity in detergent-free assay; purified cruzain, Z-FR-AMC fluorescence, no detergent; 200,000 compounds, 2.3% hits; Potency, µM, without a hit: max response, negative = inhibition, actives largely listed as inhibitors; AID 1476; P25779;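 also: plate controls were enzyme without inhibitor for no effect and buffer without enzyme for full effect; nearly all actives have a fitted effect of over 40% in size; top concentration of the series not given in the record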
Target sequence (P25779 123-467 limits assumed): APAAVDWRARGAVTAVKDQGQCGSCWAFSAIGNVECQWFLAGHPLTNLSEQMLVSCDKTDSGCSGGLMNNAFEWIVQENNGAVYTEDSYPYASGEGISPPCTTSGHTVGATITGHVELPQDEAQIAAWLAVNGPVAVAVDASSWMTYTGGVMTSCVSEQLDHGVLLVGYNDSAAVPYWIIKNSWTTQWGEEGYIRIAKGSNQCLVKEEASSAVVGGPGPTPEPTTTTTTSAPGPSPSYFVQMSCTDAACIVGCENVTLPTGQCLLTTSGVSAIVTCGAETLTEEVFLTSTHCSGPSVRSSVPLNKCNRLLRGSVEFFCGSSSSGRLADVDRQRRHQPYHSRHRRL
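Detergent-free condition (0.00005% Triton X-100) in acetate buffer pH 5.5 with DTT. 1.5 nM enzyme and compound were pre-mixed 15 min, then 2 uM Z-FR-AMC substrate added; reaction progress from fluorescence change between first and third reads (60 s).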
NS1 inh – blocks influenza NS1 protein function; S. cerevisiae slowed by influenza A NS1, growth recovery by OD600; Potency, µM (titrated, usually from 46.1 µM), inactives show at the highest dose activity, positive = more growth; 270,000 compounds, 0.4% hits; AID 2326; active means well fitted rising curve with a large enough effect; inconclusive means small, poorly fitted or top-dose-only effect; inactive means no such curve, though single readings can be large or run the other way; also: nearly all actives have a fitted effect of over 50% in size
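In this qHTS, NS1 from influenza A is expressed in budding yeast, where it slows growth. Cells are switched from glucose to 2% galactose medium (pH 6.0, -URA), treated with compound, and growth recovery is read at OD600.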
RE007 growth inh – less growth of the S. pombe RE007 Vpr strain; S. pombe RE007 Vpr strain, BacTiter-Glo ATP luminescence, 24 h; control for the full effect not named in the record; 360,000 compounds, 0.21% hits; AID 651644; Potency, µM (series often up to 92.2 µM), inactives show top-dose activity change, negative = less growth; active = well fitted falling curve with a large enough effect; inconclusive = small, poorly fitted or top-dose-only effect; inactive = no such curve, though single readings can be large or run the other way;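 also: % is scaled to controls: 0 for no effect and ±100 for the full control effect; nearly all actives have a fitted effect of over 50% in size; the assay follows cell death caused by Vpr and the record does not say whether a fall means rescue or toxicity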
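Fission yeast strain RE007, carrying one chromosomally integrated HIV-1 vpr copy, was seeded at OD 0.01 in PMG+AL medium with 23 nL pinned compound. After 24 h at 30 °C and 99% humidity, viability was read by BacTiter-Glo luminescence.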
SARS PLpro yeast – blocks SARS-CoV papain-like protease in a yeast assay. S. cerevisiae expressing SARS-CoV PLpro, growth rescue; control for the full effect not named in the record. Potency, µM (highest dose often 32.9 µM), for inactives: at the highest dose activity, positive = growth rescue. 330,000 compounds, 0.19% hits. AID 485353; active means well fitted rising curve with a large enough effect; inconclusive means small, poorly fitted or top-dose-only effect; inactive means no such curve, though single readings can be large or run the other way; also: 0% is about no effect; nearly all actives have a fitted effect of over 55% in size; growth read by luminescence after 48 h
LASV entry inh – Lassa virus entry inhibition. Lassa virus pseudotype entry inhibition, cell reporter; control for the full effect not named in the record. Potency, µM (titrated, usually from 37.9 µM), for the others: at the top dose activity change, negative = inhibition, actives largely listed as inhibitors. 300,000 compounds, 1.2% hits. AID 540256; active means well fitted inhibition curve with a large enough effect; inconclusive means small, poorly fitted or top-dose-only effect, or effect the other way; inactive means flat fitted curve, though single readings scatter; tested in HEK293 cells; also: % is scaled to controls: 0 for no effect and ±100 for the full control effect; nearly all actives have a fitted effect of over 50% in size; luciferase read-out
MARV entry inh – blocks Marburg virus binding to or entry into cells; Marburg virus pseudotyped entry inhibition, cell reporter; control for the full effect not named in the record; about a third of the inactives were read at about 46 µM; Potency, µM (series often up to 37.8 µM), without a hit: at the top dose activity change, negative = inhibition, hits mostly inhibitors; 300,000 compounds, 1.8% hits; AID 540276; active = well fitted inhibition curve with a large enough effect; inconclusive = small, poorly fitted or top-dose-only effect, or effect the other way; inactive = flat fitted curve, though single readings scatter; tested in HEK293 cells; about a fifth of its hits are not listed in these tables; also: % is scaled to controls: 0 for no effect and ±100 for the full control effect; luciferase read-out
Cruzain Triton – inhibitors of Trypanosoma cruzi cruzain with detergent; P25779; purified cruzain, Z-FR-AMC fluorescence, 0.01% Triton; Potency, µM, for the others: max response, negative = inhibition, usual class: inhibitors; 200,000 compounds, 0.43% hits; AID 1478;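 also: plate controls were neutral wells for no effect and buffer without enzyme for full effect; nearly all actives have a fitted effect of over 40% in size; top concentration of the series not given in the record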
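Sodium acetate buffer (100 mM, pH 5.5) containing 5 mM DTT and 0.01% Triton X-100 hosted 1.5 nM cruzain and test compound for 15 min at room temperature. Cleavage of 2 uM Z-FR-AMC was then tracked by fluorescence.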
* = called active by the depositor; ? = inconclusive; · = not tested or not shown; & = joins results of further samples; [ ] = remark or other dose. Unless noted, calls follow the shape of the dose curve; as a rule, active = well fitted curve in the direction sought with a large enough effect; inconclusive = small, poorly fitted or top-dose-only effect, or another doubt; inactive = no such curve, though single readings can be large; an effect the other way counts as inactive or inconclusive. Potency is read from the fitted curve at half-maximal effect.

SMILES	2A StopGo	Cruzain noTriton	NS1 inh	RE007 growth inh	SARS PLpro yeast	LASV entry inh	MARV entry inh	Cruzain Triton
COc1ccc(-c2nc(=S)c3c(n2CCN2CCOCC2)CC(C)(C)OC3)cc1	-13%	-5%	7%	-10%	-4%	-19%	-30%	-3.0%
CCC1=Nc2ccccc2NC2=C1C(=O)CCC2	5%	-7%	-4%	-4%	-6%	16%	15%&15%[46.1 µM]	0.8%
O=[N+]([O-])c1ccccc1N/N=C1\CCc2ccccc21	45%[activator]	·	2%	-16%	-1%	28%	-30%[46.1 µM]	·
Nc1cc[n+](CC(=O)Nc2ccccc2)cc1	-15%	·	-2%	-19%	1%	12%[46.1 µM]	-2%	·
Cc1csc(NC(=O)CCC(=O)N(CC(=O)NC2CCCC2)Cc2ccccc2)n1	-4%	·	-5%	4%	6%	-9%	-14%[46.1 µM]	·
Cc1ccc(C)c(OCC(=O)Nc2c[nH]c(=O)[nH]c2=O)c1	-20%	-10%	11%	14%	15%	2%	1%	-1.5%
C=CCn1c(CNC(=O)c2ccco2)nnc1SCC(=O)Nc1cccc(F)c1	4%	·	-4%	-11%	0%	·	-1%[46.1 µM]	·
COc1cccc(Cn2c(C)c(CNC3CCCCC3)c(C(=O)O)c2C)c1	-7%	-2%	·	·	·	?	25%[46.1 µM]	-1.4%
Cc1cc(N)n2ncc(-c3ccc(Cl)cc3)c2n1	47%[activator]	7%	-15%	?	-23%	11%	?	-8.8%
COc1ccc2c(C)cc(SCc3c(C)noc3C)nc2c1	-25%	2%	-80%	9%	-7%	-14%	-20%	-9.8%
O=C(O)CCC(=O)NCc1c(Cl)cccc1Sc1ccc(Cl)cc1	-13%	·	5%	-1%	0%	19%	-31%	·
O=S(=O)(c1ccc(Cl)cc1)c1ccc(Cl)cc1	-14%	2%&-7%	·	-4%	-4%	·	-2%	-5.0%&-4.8%
COc1ccccc1C(=O)OCC(=O)NC(=O)NCc1ccccc1	0%	·	·	-2%	-2%	-27%[46.1 µM]	16%[46.1 µM]	·
CN(C)c1ccc(Nc2ccc([N+](=O)[O-])cn2)cc1	36%[activator]	·	-25%	13%	-1%	-13%[46.1 µM]	-17%[46.1 µM]	·
COc1ccc(CCNC(=O)CSc2cn(Cc3cccc(C)c3)c3ccccc23)cc1OC	0%	?	23%	24%	-8%	?	?	-4.7%
COc1cccc(CNC(=O)c2cc(S(=O)(=O)N3CCCCCC3)cn2C)c1	-14%	-7%	·	·	·	25%[46.1 µM]	·	-5.2%
CCSc1ccccc1C(=O)N1CCN(Cc2ccc3c(c2)OCO3)CC1	-18%	-11%	-3%	-10%	0%	-11%[14.3 µM]	2%	-8.0%
CCC/C=C(\CCC)C(NC(=O)c1ccc(C(=O)OC)cc1)c1ccc(C(=O)OC)cc1 (configuration not stated)	-16%	-1%	·	1%	·	·	·	-0.8%
O=C(NC1CCCCCC1)c1ccc2nc3cc(Cl)ccc3c(=O)n2c1	-7%	·	·	1%	-2%	8%	2%	·
O=c1cc(-c2ccccc2)[nH]c2ccccc12	-12%	-3%&-6%	-67%	?	-12%	-6%	?	0.7%&-1.2%
CNC(=O)c1cc(S(=O)(=O)Nc2ccc3c(c2)OCO3)ccc1C	17%	·	2%	-10%	-1%	-23%	-3%	·
CN(C)/C=C/C(=O)c1cc(F)cc(C(F)(F)F)c1	2%	·	-3%	-7%	-1%	-2%	?	·
COc1cccc(C(=O)NC(=S)Nc2ccccc2N2CCOCC2)c1	?	·	-2%	12%	-2%	?	?	·
Cc1nn(CC(=O)NC2CC2)c(C)c1S(=O)(=O)NC(C)(C)C	5%	·	·	-6%	0%	20%	11%	·
Cc1cc(NC(=O)c2ccco2)ccc1NC(=O)c1ccco1	46%[activator]	·	2%	-26%	-43%	24%	5%[46.1 µM]	·
Cc1ccc(S(=O)(=O)/N=C2\SC(CC(=O)Nc3ccc(F)cc3)C(=O)N2c2ccccc2)cc1 (configuration not stated)	14%	-19%	28%	0%	-14%	9%	-20%	-0.8%
Cc1ccc(C(=O)OCC(=O)N2CCC(c3ccccc3)=N2)cc1	8%	·	·	9%	-1%	3%[46.1 µM]	-2%[46.1 µM]	·
COc1ccc2c(c1)C(NC(=O)C(F)(F)F)CC2=O (configuration not stated)	-14%	7%	1%	14%[3.69 µM]	0%	8%	0%	6.8%
CCn1c(=O)c(=O)[nH]c2cc(C(=O)N(C)Cc3ccc(OC)c(F)c3)ccc21	-7%	·	11%	-23%	1%	-7%	-9%	·
CC(=O)N1CCC(=NNc2ccc(S(=O)(=O)N3CCOCC3)cc2[N+](=O)[O-])CC1	-4%	-3%	11%	-6%	4%	?	16%	-5.9%
O=C(Nc1ccccc1Br)C1CCN(C(=O)Cc2ccccc2)CC1	-15%	-15%	12%	-13%	-4%	22%	-12%	-2.6%
CC1(C)Nc2ccccc2N(CC(=O)N2CCCCC2)C1=O	-23%	-3%	14%	20%	20%	2%	-1%	3.4%
O=C(COc1ccc(Br)cc1)NCCCNC(=O)c1cnccn1	-4%	·	-1%	2%	-1%	-12%[46.1 µM]	-4%[46.1 µM]	·
Cc1ccc(NC(=O)/C(C#N)=C/c2cccs2)c(C)c1	40%[activator]	1%	4%	0%	-4%	?	?	6.2%
CCOC(=O)C(=O)NCc1ccc(/C=C2/N=C(C)C(C(=O)OCC)=C2O)o1	-15%	·	5%	-5%	1%	-3%	6%[46.1 µM]	·
N#Cc1nc(-c2ccccc2F)oc1NCCc1ccccc1	23%	4%	-33%	-4%	-9%	1%	-20%	5.5%
CC(C)CC1NC(=O)N(CC(=O)N2CCCc3ccccc32)C1=O (configuration not stated)	-2%	·	·	-4%	-1%	-33%	-20%[46.1 µM]	·
Cc1nn(C)cc1CNC(=O)C1(C)CC1(Cl)Cl (configuration not stated)	9%	6%	4%	-7%	14%	?	4%	1.7%
C=Cc1ccc(C(=O)N2CCCC(Nc3ccc4c(c3)OCCO4)C2)cc1 (configuration not stated)	9%	·	10%	-9%	-9%	0%	6%	·
CC(=O)O/C(=C\c1cn(C(C)=O)c2ccccc12)C(=O)O	-11%	·	4%	-15%	0%	·	·	·
COC(=O)C1Cc2c([nH]c3ccccc23)CN1 (configuration not stated)	?	3%	-3%	3%	3%	5%	?	2.3%
COc1ccc2c(c1)C(C1=C(O)CC(C)(C)CC1=O)C1=C(CC(C)(C)CC1=O)O2 (configuration not stated)	10%	23%	-5%	9%	17%	0%	-1%	-4.8%
O=C(c1ccc2c(c1)OCCO2)N(Cc1cccnc1)c1nc2ccc(Cl)cc2s1	8%	-4%	·	·	·	?	·	3.1%
COc1ccc(Nc2oc(-c3ccc(COc4ccc(OC)cc4)o3)nc2C#N)cc1	-9%	-28%	·	·	·	-19%[46.1 µM]	1%[46.1 µM]	-3.1%
O=C(O)c1ccc(CSc2nnc(-c3cccnc3)n2-c2ccc(Br)cc2)cc1	-13%	·	5%	6%	1%	3%[46.1 µM]	?	·
CCCCC(=O)NC(c1ccc(C(C)C)cc1)c1ccc2cccnc2c1O (configuration not stated)	-8%	·	-107%	0%	7.1µM*	·	·	·
CCOC(=O)CCc1c(C(=O)OCC)[nH]c(CC)c1C(=O)OCc1ccccc1	-22%	·	-1%	1%	0%	?	?	·
CCC(C)(C)n1nnnc1C(c1cc2cc(C)ccc2[nH]c1=O)N1CCCc2ccccc21 (configuration not stated)	-11%	-4%	9%	-7%	-10%	-2%	-10%	-2.3%
Cc1cc([N+](=O)[O-])nn1CCCC(=O)NC(C)c1ccccc1 (configuration not stated)	2%	7%	14%	12%	34%	4%	-11%	-2.8%
COC(=O)c1ccc(C(=O)OC)c(=O)[nH]1	-1%	·	-6%	-2%	-1%	·	·	·
COC(=O)c1oc2ccc(Br)cc2c1NC(=O)CCCN1C(=O)c2ccccc2C1=O	-22%	-20%	-1%	-3%	-1%	·	3%	1.5%
COc1cccc(Cn2nnc(C(=O)Nc3ccc(C)cc3)c2N)c1	38%[activator]	-9%	2%	5%	7%	·	·	1.5%
Cc1cccc2cc(CN(CCN3CCOCC3)C(=O)Nc3ccccc3F)c(=O)[nH]c12	-6%	-4%	1%	-11%	-11%	1%	10%	-1.6%
CC1(C)C2CCC1(C)C(OC(=O)CC(=O)O)C2 (configuration not stated)	-11%	4%	10%	-13%	2%	-2%	-2%	-3.1%
Cc1cccc(C(=O)Nc2cc3c(cc2N2CCOCC2)n(C)c(=O)n3C)c1	-13%	-2%	·	·	·	22%[46.1 µM]	9%[46.1 µM]	-0.6%
COc1cc(C2=NOC(C(=O)N3CCCCCC3)C2)cc(OC)c1OC (configuration not stated)	22%	-8%	-1%	3%	5%	-10%	-14%	2.8%
CON/C=C(\C=Nc1ccc(C(F)(F)F)cc1)c1ncc(C(F)(F)F)cc1Cl	14%	-2%	19%	0%	-3%	24%	-10%	-11%
c1ccc(COc2nsnc2N2CCOCC2)cc1	-20%	-3%	-93%	?	-38%	·	·	-4.7%
Cc1ccc(N/C=C2/Sc3ccccc3NC2=O)cc1	37%[activator]	·	0%	0%	0%	·	·	·
O=C(c1ccc(OC2CCN(C(=O)C3CC3)CC2)cc1)N(CCO)Cc1ccccc1	-23%	·	3%	7%	9%	·	·	·

The listing continues.
SMILES	2A StopGo	Cruzain noTriton	NS1 inh	RE007 growth inh	SARS PLpro yeast	LASV entry inh	MARV entry inh	Cruzain Triton
O=C(CSc1nnc(-c2ccc(Br)cc2)n1CCc1ccccc1)NC1CCS(=O)(=O)C1 (configuration not stated)	-8%	?	-11%	-3%	27%	1%	-1%[46.1 µM]	-3.6%
Cn1c(N)c(C(=O)COC(=O)CNC(=O)c2ccc(Cl)cc2Cl)c(=O)n(C)c1=O	0%	·	·	-6%	17%	12%[46.1 µM]	0%[46.1 µM]	·
COc1ccc2c(c1)-c1c(sn(-c3ccccc3)c1=S)C(C)(C)N2	?	?	?	4%	-1%	-16%	-12%	-6.1%
CN(CC(=O)NCc1ccccc1Cl)S(=O)(=O)c1cccs1	15%	·	16%	-10%	1%	7%	5%[46.1 µM]	·
COc1ccc(CNc2ccc(C(=O)O)cc2)cc1	31%[activator]	8%	-102%	0%	3%	11%	?	1.0%
CC(=O)C(Cc1ccccc1)NC(=O)CN1CCN(Cc2ccccc2)CC1 (configuration not stated)	-7%	·	·	0%	0%	5%[46.1 µM]	-5%[46.1 µM]	·

Screening results: PubChem, National Center for Advancing Translational Sciences (NCATS)
